Compound activity deposited in PubChem BioAssay by several laboratories.
Beta cell apopt = blocks beta cell apoptosis. INS-1E cytokine-induced death, ATP luminescence, 48 h; percent of positive-control rescue, neutral wells zero. protection from apoptosis, % (test concentration not listed). 0.8% of 300,000 active. AID 435005;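 active means all replicates at 75% or more, or half of them and the mean; inconclusive means half reach 75% but not the mean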;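 further: 0% = cytokine-treated negative control wells and 100% = positive control rescue; higher means more ATP so stronger rescue from cytokine killing; wells of about 40 µL received 100 nL stock; the first replicate is given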
A1 inh = inhibitors of the anti-apoptotic protein A1, read as caspase activation | MEF A1-2A-BIM cells, Caspase-Glo 3/7 luminescence, 3 h; percent of clofoctol response, vehicle zero | caspase activation, % (no concentration beside the values) | 0.066% of 330,000 active | AID 2462;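 active means over half of replicate activation scores above 10%, or exactly half above 10 with the replicate mean above 10; inconclusive means replicate mean below 10 yet half the replicates above 10; inactive means over half of replicates below 10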;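 further: wells of about 30 µL received 50 nL stock; many hits fall short of the cut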
FGF22 binding = shifts melting point of recombinant human FGF22 | 1.5% of 340,000 active | calls only at 9.99 µM | Q9HCT0 | recombinant FGF22 thermal shift, SYPRO orange fluorescence; percent of sucrose octasulfate shift, DMSO zero;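 active means melting point raised past a set limit in the mean and every replicate; inconclusive means no clear call; three in four hits are not shown here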
Target sequence (Q9HCT0 whole entry, looked up): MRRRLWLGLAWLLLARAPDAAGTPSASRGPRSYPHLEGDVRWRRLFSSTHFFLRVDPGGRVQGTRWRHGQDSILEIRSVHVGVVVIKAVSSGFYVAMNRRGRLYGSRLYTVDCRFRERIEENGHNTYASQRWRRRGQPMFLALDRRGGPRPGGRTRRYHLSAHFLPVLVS
T cruzi inh = blocks replication of Trypanosoma cruzi | T. cruzi beta-gal in NIH3T3, luminescence, 90 h | inhibition, % (no concentration beside the values) | 1.4% of 300,000 active;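 active means mean inhibition across valid replicates above about 55%, limit read from the data; inconclusive means mean below that limit but half or more replicates reach it; inactive means mean below it, under half of replicates reach it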;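 further: signal also drops with host cell toxicity which is not excluded here; 0% = plate median of DMSO wells and 100% = zero luminescence signal; higher percent means less beta-gal luminescence so fewer parasites; stock transfer was 50 nL into about 50 µL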
UCH37 DUB inh = human UCH37 deubiquitinating enzyme inhibition | purified proteasome/UCH37, Ub-AMC cleavage fluorescence | inhibition, % (no concentration beside the values) | 0.33% of 330,000 active;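 active means mean of two replicates above 20%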;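 further: 0% = compound-free wells with enzyme and 100% = wells lacking proteasome; stock transfer was 100 nL into about 20 µL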
Target sequence (Q9Y5K5 whole entry, looked up): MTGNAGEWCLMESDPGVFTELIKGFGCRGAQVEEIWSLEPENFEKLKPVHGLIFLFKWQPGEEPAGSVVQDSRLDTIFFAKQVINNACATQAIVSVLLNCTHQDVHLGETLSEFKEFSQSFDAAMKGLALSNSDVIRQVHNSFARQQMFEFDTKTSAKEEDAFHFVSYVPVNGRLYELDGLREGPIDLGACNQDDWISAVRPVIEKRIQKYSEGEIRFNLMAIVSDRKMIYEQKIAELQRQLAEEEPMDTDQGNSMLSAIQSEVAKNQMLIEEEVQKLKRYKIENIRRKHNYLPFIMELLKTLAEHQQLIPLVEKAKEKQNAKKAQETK
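Test system – human UCH37 enzyme supplied as purified proteasome complex · Incubation – 30 min preincubation with enzyme, 25 min cleavage at room temperature · Detection – AMC fluorescence from Ub-AMC cleavage, excitation 355 nm, emission 460 nm · Benchmarks – no-proteasome wells (full inhibition) and compound-free wells (no inhibition)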
E coli growth = blocks Escherichia coli growth; OD600 absorbance (no concentration beside the values); AID 1053175; OD600, 23 h; hits give low values; 0.21% of 330,000 active;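 active means OD600 absorbance below the run mean of sample wells minus 3.6 SD, in any replicate, cut at about 0.56 in these data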;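 further: stock transfer was 300 nL into about 60 µL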
rRNA inh HTS = inhibitors of bacterial rRNA selective over humanized ribosomes | E. coli WT GFP vs humanized-ribosome RFP mutants, fluorescence, 24 h; hits give low values; DMSO median 0, no signal -100 | AID 720706 | GFP signal change (wild-type ribosome), % (concentration not given with the values) | 1.6% of 350,000 active;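 active means significant combined selectivity score with lowered wild-type GFP, culture density cut under 30%, mutant RFP and density less affected; inactive means any of these conditions unmet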; further: one replicate is shown; some compounds called inactive have numbers as strong as hits
AF4-AF9 inh = MLL-AF4/AF9 protein interaction inhibition. AlphaScreen, biotin-AF4 peptide binding to FLAG-AF9. inhibition, % at 10 µM. 0.47% of 350,000 active;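 active means every replicate reaching a set inhibition limit, whatever the replicate mean, cut at about 25% in these data; inconclusive means mean inhibition reaches that limit but some replicates miss it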;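 further: 0% = plate neutral control median and 100% = total signal loss; the record names both 10 and 1 µM as test concentration; the first replicate is given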
Target sequence (P42568 whole entry, looked up): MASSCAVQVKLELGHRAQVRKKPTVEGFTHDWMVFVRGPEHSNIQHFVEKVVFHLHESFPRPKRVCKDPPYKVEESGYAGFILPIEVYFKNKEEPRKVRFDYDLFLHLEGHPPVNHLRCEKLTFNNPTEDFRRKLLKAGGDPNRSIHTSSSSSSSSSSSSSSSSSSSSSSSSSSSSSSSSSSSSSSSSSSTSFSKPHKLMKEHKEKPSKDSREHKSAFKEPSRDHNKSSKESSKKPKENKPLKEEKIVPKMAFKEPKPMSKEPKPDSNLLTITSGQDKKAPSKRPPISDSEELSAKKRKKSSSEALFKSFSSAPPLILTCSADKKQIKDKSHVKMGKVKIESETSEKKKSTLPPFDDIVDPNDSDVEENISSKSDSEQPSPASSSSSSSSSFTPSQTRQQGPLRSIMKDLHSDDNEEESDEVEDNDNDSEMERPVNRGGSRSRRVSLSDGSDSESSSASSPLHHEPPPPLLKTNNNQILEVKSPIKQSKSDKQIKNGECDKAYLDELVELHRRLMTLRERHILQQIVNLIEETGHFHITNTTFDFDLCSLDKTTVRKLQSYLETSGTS
rRNA inh HTS OD600 = second read-out of rRNA inh HTS, no call of its own (marks repeat the call); OD600 change, %; measured here: OD600 growth;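 optical density of the mix in the first replicate; 0 = DMSO median and -100 = no signal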
rRNA inh HTS RFP = also measured in rRNA inh HTS; calls as there; RFP signal change, %; measured here: RFP humanized mutant strains;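 first replicate; 0 = DMSO median and -100 = no signal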
Numbers without * were called inactive; i = inactive; ? = inconclusive; · = not tested or not shown. This is a subset, so the mix of outcomes need not match the whole.

SMILES	Beta cell apopt	A1 inh	FGF22 binding	T cruzi inh	UCH37 DUB inh	E coli growth	rRNA inh HTS	rRNA inh HTS OD600	rRNA inh HTS RFP	AF4-AF9 inh
O=C1N2CCSC2=NC1(Nc1nccs1)C(F)(F)F (centres undefined)	·	1.4	·	-5	3.1	0.7	·	·	·	·
COc1cc(NC(=O)c2ccco2)c(OC)cc1NC(=O)Nc1ccccc1Cl	5	0.0	i	1	-15	0.7	5	5	2.0	2.7
CCCCCN(C(=O)CCC(=O)OCc1cc(C)ccc1C)c1c(N)n(CCCC)c(=O)[nH]c1=O	3	0.9	i	6	0.6	0.62	1	1	1.2	-4.2
Cc1ccc(S(=O)(=O)Nc2ccc(O)c3ncccc23)cc1	49	-0.8	i	44	6.2	0.77	-20	-18	-3.3	26*
COC(=O)C1=NNC2(c3ccc(Cl)cc3)C(=O)N(c3ccccc3)C(=O)C12 (centres undefined)	-6	1.1	i	6	0.0	0.68	10	4	-0.4	-0.7
COc1ccc(/C=N/NC(=O)c2ccncc2)c(C(=O)O)c1OC	0	1.3	i	-8	·	·	6	-1	-4.2	-3.0
CCOC(=O)/C=c1\s/c(=C\c2ccc(-c3ccccc3)cc2)c(=O)n1CC(=O)NCc1ccc2c(c1)OCO2	5	0.8	i	3	·	·	17	-2	3.0	2.9
C=CCNC(=S)NCc1cccnc1	1	?	i	-6	0.9	0.67	·	·	·	0.5
COc1ccc(C(=O)Nc2ccc(NC(=O)c3ccco3)c(Cl)c2)cc1OC	-8	-4.8	·	1	-12	0.69	·	·	·	·
COc1ccc(S(=O)(=O)N(CC(=O)NCc2cccnc2)C2CCCCC2)cc1OC	-3	0.3	i	-5	0.6	0.69	0	5	-5.7	-8.3
O=C(Nc1ccc(Cl)c(Cl)c1)OCc1cnc(Cl)s1	-9	-0.4	·	15	4.5	0.71	·	·	·	·
Cc1ccc(N2CN(S(=O)(=O)c3cccc([N+](=O)[O-])c3)c3nc4ccccc4nc32)cc1	10	0.8	i	3	5.5	0.7	8	11	1.7	-4.8
COc1ccc(CCNC(=O)C2CC3Cn4c(nc5cc(Cl)c(Cl)cc54)C3N2C)cc1 (centres undefined)	7	-0.3	i	-1	3.8	0.69	-4	-4	-6.2	2.3
COc1cccc(CC(NC(C)=O)C(=O)NC2CCN(C(=O)c3ccncc3)CC2)c1OC (centres undefined)	·	·	i	-2	6.2	0.71	10	10	-2.2	1.0
CCCCCCc1cc2cc(S(=O)(=O)c3ccc(F)cc3)c(=O)oc2cc1O	3	-0.6	i	-3	-127	0.68	-2	6	-7.8	-2.5
Cc1ccc(N2CCN(/N=C/c3cccnc3)CC2)cc1	0	0.9	i	6	·	·	6	11	0.6	8.5
C[C@]12C(=O)N(c3cccc(Cl)c3)C(=O)N1[C@@H]1c3ccccc3OC[C@@H]1[C@H]2c1ccccc1	-4	-1.4	i	·	-2.9	·	8	1	0.0	·
CCn1c(COc2ccc(OC)cc2)nc2ccccc21	-1	0.1	·	6	4.5	0.7	·	·	·	·
O=c1[nH]c2c(=O)[nH]cnc2nc1-c1ccccc1	0	0.7	i	4	i	0.68	3	0	-2.8	·
O=C(NN=Cc1ccccc1C(=O)O)C(=O)NN=Cc1ccccc1C(=O)O	·	·	i	·	7.2	0.66	16	18	0.4	0.8
O=C(Nc1nnc(SCc2cccnc2)s1)C1CC(=O)N(c2ccc(F)cc2)C1 (centres undefined)	4	-0.5	i	-1	0.6	0.7	10	3	1.4	-1.2
COc1ccc(C(=O)C2CCCN(C(=O)c3ccc(OC)o3)C2)c(C)c1 (centres undefined)	-3	0.2	i	8	1.8	0.71	-4	-8	-1.2	4.2
O=C(CNS(=O)(=O)c1cccc2nonc12)NCc1ccc(F)cc1	·	0.1	·	-9	3.7	0.67	·	·	·	·
CC1(C)CC(=O)C(Sc2ccccc2)=C(O)C1	-11	-0.3	i	-14	3.4	0.61	4	-9	3.3	-0.4
COc1ccc(/C=C/CN2CCN(Cc3cccc(OC)c3)C(CCO)C2)cc1 (centres undefined)	-3	-1.2	i	26	5.1	0.65	6	7	-1.9	-0.9
Other entries follow:
SMILES	Beta cell apopt	A1 inh	FGF22 binding	T cruzi inh	UCH37 DUB inh	E coli growth	rRNA inh HTS	rRNA inh HTS OD600	rRNA inh HTS RFP	AF4-AF9 inh
O=C(NC(=S)NCCO)c1cn(-c2ccccc2)nc1-c1ccccc1	2	-0.4	i	-2	2.7	0.72	13	11	3.0	-13
CC1CC/C(=C\c2ccc3c(c2)OCO3)C(=O)/C1=C/c1ccc2c(c1)OCO2 (centres undefined)	5	0.6	·	29	6.8	0.71	·	·	·	·
O=C(Nc1ccc([N+](=O)[O-])cn1)c1cc(-c2cccc(Br)c2)nc2ccccc12	10	3.0	i	53	1.4	0.67	1	2	-0.4	1.6
CCCNc1ncnc2onc(C)c12	-11	-0.7	i	·	4.2	0.64	9	10	0.3	-9.2
O=C(CN1CCSC1=O)N1CCN(S(=O)(=O)c2ccc(Cl)cc2)CC1	-2	0.6	i	·	3.4	0.71	7	10	-2.4	-0.6
COC(=O)C1CCN(C(=O)c2sc3nc(-c4ccc(F)cc4)cn3c2C)CC1	-2	-0.3	·	10	-0.2	0.71	·	·	·	·
CCOc1ccc(-n2cnnn2)cc1S(=O)(=O)NCCc1ccc(OC)c(OC)c1	-3	-0.2	·	7	1.0	0.66	·	·	·	·
CN1CCC(Oc2ccc(Sc3ccccc3)cc2)CC1	-1	0.9	i	46	5.8	0.63	-42	-37	-5.7	12
CCN1CCN(CCCN(Cc2ccco2)C(=S)Nc2cc(Cl)ccc2C)CC1	-3	-0.5	i	8	-0.1	0.74	16	4	6.0	-1.2
Cc1ccc(C)c(OCC(=O)NC(Cc2c[nH]c3ccccc23)C(=O)O)c1 (centres undefined)	-4	-0.5	i	-22	0.0	0.68	4	-1	2.6	-1.2
COc1cc(CCC(=O)N2CCN(c3ccc(N4CCOCC4)nn3)CC2)cc(OC)c1OC	1	0.7	·	-9	-161	0.73	·	·	·	·
CC(C)c1cc(=O)[nH]c(SCC(=O)NC2CCCC2)n1	-1	0.3	i	-6	-1.0	0.7	0	7	-1.5	2.2
COc1ccccc1C(=O)NNC(=O)C(=O)Nc1ccc(C)c(Cl)c1	-4	-0.2	i	3	·	·	5	0	-1.0	0.1
Cc1nc2ccccc2c2oc(C(=O)NCCCN3CCC(C)CC3)cc12	12	0.2	i	16	3.3	0.68	-8	-3	2.7	-6.8
O=C1NC(Cc2ccccc2)c2nc3cc(F)ccc3c(=O)n2-c2ccc(Cl)cc21 (centres undefined)	-5	1.1	i	·	·	·	7	-2	-7.8	-2.7
Cc1ccc(Oc2ccc(-c3nc(N)nc(N)n3)cc2)cc1C	-6	0.3	·	1	8.1	0.66	·	·	·	·
N=C1S/C(=C\c2ccc(-c3ccccc3C(=O)O)o2)C(=O)N1c1ccc2c(c1)OCO2	·	·	i	-8	18	0.73	-28	-24	-4.8	-4.2
CC(C)Oc1ccc(CCc2n[nH]c(=S)n2-c2ccccc2)cc1	-4	1.7	i	-15	5.3	0.64	-21*	-12*	0.0*	-4.8
O=C(Cc1ccccn1)c1ccncc1	·	·	i	·	-2.0	0.63	12	9	4.3	4.1
Cc1ccccc1C(=O)NCCCNC(=O)c1cnccn1	-4	0.2	i	5	1.2	0.64	5	5	-0.9	0.4
O=C(Nc1ncccc1Cl)c1ccccc1F	2	-0.5	·	10	4.8	0.67	·	·	·	·
CN=C1S/C(=C\c2ccc(N3CCOCC3)c(F)c2)C(=O)N1C	-1	-2.2	·	6	-54	0.72	·	·	·	·
COc1cccc(NC(=O)COC(=O)CC(NC(N)=O)c2ccc(Cl)cc2)c1 (centres undefined)	3	0.3	i	-6	1.8	0.71	-1	-2	0.1	1.6
Cc1ccc(C(=O)Nc2nnc(S(=O)(=O)N3CCN(c4ccc(F)cc4)CC3)s2)cc1	11	-0.3	i	-3	1.6	0.66	6	6	1.4	0.2
Cc1onc(-c2ccccc2)c1C(=O)Nc1nnc(N(C)Cc2ccccc2)s1	·	-0.3	i	6	1.6	0.73	5	4	2.5	-3.1

Given with values under each structure: entries from further up.
The line under a structure holds: Beta cell apopt	A1 inh	FGF22 binding	T cruzi inh	UCH37 DUB inh	E coli growth	rRNA inh HTS	rRNA inh HTS OD600	rRNA inh HTS RFP	AF4-AF9 inh
CC1CC/C(=C\c2ccc3c(c2)OCO3)C(=O)/C1=C/c1ccc2c(c1)OCO2 (centres undefined)
 : 5	0.6	·	29	6.8	0.71	·	·	·	·
CN1CCC(Oc2ccc(Sc3ccccc3)cc2)CC1
 : -1	0.9	i	46	5.8	0.63	-42	-37	-5.7	12

The main list resumes; the four compounds before the break are reprinted first.
SMILES	Beta cell apopt	A1 inh	FGF22 binding	T cruzi inh	UCH37 DUB inh	E coli growth	rRNA inh HTS	rRNA inh HTS OD600	rRNA inh HTS RFP	AF4-AF9 inh
CN=C1S/C(=C\c2ccc(N3CCOCC3)c(F)c2)C(=O)N1C	-1	-2.2	·	6	-54	0.72	·	·	·	·
COc1cccc(NC(=O)COC(=O)CC(NC(N)=O)c2ccc(Cl)cc2)c1 (centres undefined)	3	0.3	i	-6	1.8	0.71	-1	-2	0.1	1.6
Cc1ccc(C(=O)Nc2nnc(S(=O)(=O)N3CCN(c4ccc(F)cc4)CC3)s2)cc1	11	-0.3	i	-3	1.6	0.66	6	6	1.4	0.2
Cc1onc(-c2ccccc2)c1C(=O)Nc1nnc(N(C)Cc2ccccc2)s1	·	-0.3	i	6	1.6	0.73	5	4	2.5	-3.1
COc1cc(C=NNc2ccc(S(=O)(=O)Nc3ccccc3C(=O)O)cc2[N+](=O)[O-])ccc1O	0	0.4	i	·	22*	0.7	-6	7	-1.6	9.1
CCN1CCN(CCc2nc3cc([N+](=O)[O-])ccc3n2C)CC1	-1	0.6	i	12	11	0.71	1	2	0.7	-11
COc1ccccc1CNC(=O)COc1ccc(Br)c(C)c1	-3	0.0	i	2	4.8	0.65	-25	-62	1.6	-1.2
Nc1nc(SCC(=O)NCCC(c2ccccc2)c2ccccc2)n[nH]1	-3	-0.2	·	5	-1.3	0.69	·	·	·	·
COC(=O)C1CCc2c(ccc3c2CCCC3)C1=O (centres undefined)	·	·	i	·	-0.1	0.64	-46	-48	-11	-2.1
CC(C)OCCCNC(=O)CCC(=O)NNc1nc2ccccc2c2nc(-c3ccccc3)nn12	0	-0.2	·	1	-1.7	0.65	·	·	·	·
O=C(NC1CCCCC1)C(c1ccc(F)cc1)N(Cc1ccco1)C(=O)c1ccccn1 (centres undefined)	3	0.0	i	2	6.7	0.68	-3	-5	1.7	2.0
COc1cc(C#Cc2ccc3cc(C(C)(C)O)oc(=O)c3c2)cc(OC)c1	-8	-4.0	i	·	1.3	0.71	-1	-1	-0.7	-0.3
